Menin-MLL FL inh = inhibitors of human menin-MLL interaction, wild-type MLL peptide. Fluorescence polarization, fluorescein-MLL peptide displacement from menin. FP activity change, % at 61.4 µM. 290,000 tested, under 10 active; inconclusive = falling polarisation curve, or a change in total fluorescence; inactive = total fluorescence flat and polarisation flat or rising; no compound was filed as active; the % refers to the polarisation; negative = inhibition;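 further: % of control where 0% means no effect; inhibitors lower the polarisation; unlabelled MLL peptide was the positive control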
TRPV1 PAM = human TRPV1 potentiation. Q8NER1. TRPV1-expressing cells, Fluo-8 calcium influx, capsaicin EC20 potentiation; host cell line not named in the record; control for the full effect not named in the record. potentiation, % at 8.33 µM. 0.02% of 320,000 active; active means potentiation above 80%; inconclusive means 30% to 80%; inactive means below 30%; further: 0% is about no effect
Target sequence (Q8NER1 whole entry, looked up): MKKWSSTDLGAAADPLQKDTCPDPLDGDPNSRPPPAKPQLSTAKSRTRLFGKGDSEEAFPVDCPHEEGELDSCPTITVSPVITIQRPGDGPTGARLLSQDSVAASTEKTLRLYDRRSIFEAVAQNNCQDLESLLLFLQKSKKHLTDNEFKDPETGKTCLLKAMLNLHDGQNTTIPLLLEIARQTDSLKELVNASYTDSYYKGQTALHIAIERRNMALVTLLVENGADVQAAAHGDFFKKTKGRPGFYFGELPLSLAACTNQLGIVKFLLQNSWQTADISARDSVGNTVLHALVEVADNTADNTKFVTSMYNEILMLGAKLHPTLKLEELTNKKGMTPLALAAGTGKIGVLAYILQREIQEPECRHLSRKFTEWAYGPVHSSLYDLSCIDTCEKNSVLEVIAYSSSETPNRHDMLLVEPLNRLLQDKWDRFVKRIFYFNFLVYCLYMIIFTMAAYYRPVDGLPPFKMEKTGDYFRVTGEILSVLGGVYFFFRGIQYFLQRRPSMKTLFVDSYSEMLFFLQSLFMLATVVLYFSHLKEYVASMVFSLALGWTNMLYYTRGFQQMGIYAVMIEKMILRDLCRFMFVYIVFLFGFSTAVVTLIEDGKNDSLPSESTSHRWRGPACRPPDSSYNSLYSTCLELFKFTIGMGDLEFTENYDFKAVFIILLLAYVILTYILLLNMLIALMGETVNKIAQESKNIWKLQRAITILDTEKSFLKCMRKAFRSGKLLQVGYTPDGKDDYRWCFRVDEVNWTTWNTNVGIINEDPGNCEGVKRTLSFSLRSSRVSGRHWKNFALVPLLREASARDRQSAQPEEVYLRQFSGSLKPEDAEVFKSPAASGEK
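Cells expressing TRPV1 were dye-loaded with Fluo-8 and read kinetically: 10 s baseline, 3 min after compound (agonist portion), then 2 min after EC20 capsaicin (allosteric enhancer portion). Calcium-bound dye fluorescence at 480/520 nm.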
PINK1 modulator = changes PINK1 expression. PINK1 immunofluorescence, high-content cytometry, 24 h. Potency, µM (doses to about 76.6 µM), for the others: top-dose activation (PINK1 increase), usual class: activators. 0.2% of 410,000 active; active = well fitted activation curve with a large enough effect; inconclusive = small, poorly fitted or top-dose-only effect; inactive = flat fitted curve, though single readings scatter; cell line not stated here;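 further: potency means the concentration at half of the fitted maximal effect; % of control where 0% means no effect; nearly all actives have a fitted effect of over 65% in size; a mitochondrial uncoupler was the plate control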
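Stable cell line treated 24 h with compounds at 5 concentrations (CCCP controls), then fixed and immunostained for PINK1 plus nuclear and cell stains; PINK1 immunofluorescence quantified by laser-scanning microplate cytometry.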
ClpP mod = qHTS Assay for Activators of ClpP; ATP-dependent Clp protease proteolytic subunit (Bacillus subtilis (strain 168)), P80244; purified B. subtilis ClpP, FRET peptide cleavage, 20 min; Potency, µM (titrated, usually from 57.5 µM), for the others: at the top dose activity change, negative = active; 1.9% of 340,000 active; AID 651965, 2013; active = well fitted falling curve with a large enough effect; inconclusive = small, poorly fitted or top-dose-only effect; inactive = no such curve, though single readings can be large or run the other way; further: potency means the concentration at half of the fitted maximal effect; the source files actives as falling curves though it sought activators and does not explain the sign; nearly all actives have a fitted effect of over 65% in size; many hits overshoot -100%
Target sequence (P80244 whole entry, looked up): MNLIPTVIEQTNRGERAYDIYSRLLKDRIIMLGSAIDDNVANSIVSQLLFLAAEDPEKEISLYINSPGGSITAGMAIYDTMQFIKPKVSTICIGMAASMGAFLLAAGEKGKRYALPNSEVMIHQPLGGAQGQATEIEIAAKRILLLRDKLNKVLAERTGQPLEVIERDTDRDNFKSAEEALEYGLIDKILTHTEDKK
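Buffer: 100 mM Tris/HCl pH8, 100 mM KCl, 0.05% low protease BSA, 2.5% glycerol, 0.01% Tween-20. ClpP 10 microg/mL final; 20 min RT; delta FRET normalized to ADEP and DMSO controls.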
TRPML1 agonist = agonists of human TRPML1 channel; Q9GZU1; TRPML1-expressing cells, Ca2+ dye fluorescence, FDSS; host cell line not named in the record; reference of the full effect not given here; activation, % (test concentration not listed); 0.12% of 410,000 active; AID 624414; in the data active = activation above about 50%; inconclusive = about 30% to 50%; inactive = below about 30%; further: 0% is about no effect; the text of the record puts the active cut at 80%
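Calcium fluorescence on an FDSS kinetic reader gave the read-out. Tet-induced TRPML1-DL cells were plated overnight, dye-loaded (Ca8 with quencher, 45-90 min, room temperature, dark), then read 110 s after compound addition, and again 110 s after 4uM final 54-4 (EC80).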
TRPML1 inh = blocks the human TRPML1 channel | 0.02% of 390,000 active | AID 624415 | TRPML1-inducible cells, Ca2+ dye fluorescence, FDSS; hits give low values; inhibition of EC80 agonist-evoked calcium signal | activity change, negative = inhibition, % (test concentration not listed); in the data active means activity change below about -50%; inconclusive means about -30% to -50%; inactive means above about -30%;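 further: stimulus is agonist 54-4 at its EC80 concentration; on the % scale 0 is the no-effect control and ±100 the full control effect; compound concentration not given in the record; the text of the record puts the active cut at -80%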
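TRPML1-DL cells, Tet-induced overnight (~16 h, 37 °C) at 1,500 cells/well, were loaded with Ca8 no-wash dye plus quencher for 45-90 min at room temperature. Compounds were pinned during FDSS kinetic reading; agonist 54-4 at EC80 (4 uM final) then added.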
Sfp PPTase inh = Sfp phosphopantetheinyl transferase inhibition. Biochemical Sfp PPTase activity, qHTS. 3.5% of 310,000 active. Q9F4F7. AID 1490. Potency, µM, for inactives: max response, negative = inhibition, most hits filed as inhibitors; active means well fitted inhibition curve with a large enough effect; inconclusive means small, poorly fitted or top-dose-only effect, or another doubt; inactive means no such curve, though single readings can be large or run the other way;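 further: the enzyme is Sfp with the accession as filed and its product quenches rhodamine fluorescence; potency means the concentration at half of the fitted maximal effect; 0% = enzyme reaction without inhibitor and -100% = no enzyme wells; top concentration of the series not given in the record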
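Fluorescence-quenching assay: 15 nM Sfp-PPTase preincubated 15 min at room temperature with compound, then 5 uM rhodamine-CoA and 12.5 uM BHQ-2-labelled YbbR peptide added. Fluorescence (ex 525/em 598 nm) read at start and after 30 min; difference gives rate.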
* = called active by the depositor; u = inconclusive; x = not tested or not shown; [ ] = another dose, or the depositor's remark. The order is random; about 4.4% have a hit in one of these screens.

SMILES	Menin-MLL FL inh	TRPV1 PAM	PINK1 modulator	ClpP mod	TRPML1 agonist	TRPML1 inh	Sfp PPTase inh
CN(C(=O)c1nc(-c2ccccc2)n(-c2ccccc2)n1)C1CCS(=O)(=O)C1 (centres undefined)	-0.8	0	-2.1%	x	-0.8	12	22%
O=C(c1ccccc1)c1cccc(NC(=O)c2ccco2)c1	0.7	-11	1.0%	0.5%	1.6	4	-3%
COc1ccccc1Nc1nc(N)nc(CSc2nncn2C)n1	-0.5	-1	-3.5%	-2.7%	0.3	57	9%
COCCN(C(=S)Nc1cccc(C)c1C)C(C)c1ccco1 (centres undefined)	0.2	-25	3.1%	x	-1.1	11	-4%
CC(C)[C@H](NC(=O)c1ccccc1)C(=O)OCc1nc2scc(-c3ccccc3)c2c(=O)[nH]1	15	2	0.8%	-0.6%	1.3	29	1%
Cc1cccc(N(C)S(=O)(=O)c2cc(-c3cnc(C4CC4)o3)ccc2C)c1	x	x	1.0%	-8.0%	2.2	58	x
Cc1ccnn1CC(=O)N/N=C/c1cn[nH]c1-c1ccc(F)cc1	0.2	4	3.7%	-0.1%	0.3	-7	21%
COc1ccc2nc(NC3=NC(c4ccccc4)CC(=O)N3)nc(C)c2c1 (centres undefined)	5.9	-5	1.8%	-0.5%	0.1	69	4%
CCOC(=O)c1c(NC(=O)c2nn(CC)cc2Br)c(C#N)cn1-c1ccccc1	5.7	3	-1.0%[38.3 µM]	-0.6%	2.0	23	-3%
CN(NS(C)(=O)=O)c1ncc(C(F)(F)F)cc1Cl	0.9	-22	1.6%	x	-0.4	5	79µM*
Cc1ccc(C(=O)CSc2nnc(-c3ccco3)n2C)cc1	-0.4	5	4.1%	x	0.6	6	18%
Cc1ccc(C2=NN(C(=O)COc3ncnc4ccccc34)C(c3ccco3)C2)cc1 (centres undefined)	-0.7	-31	6.9%	0.2%	0.6	-5	17%
COc1ccc2[nH]c(=O)c(CN(C(=O)c3ccncc3)C(C)(C)C)cc2c1	-0.2	6	-0.2%	-19%	-0.2	-4	-7%
O=C(COc1ccc(Br)cc1Br)NC1CCS(=O)(=O)C1 (centres undefined)	x	12	-1.0%	1.7%	0.0	6	x
Cc1ccc(NC(=O)CN(C)C(=O)COC(=O)CCS(=O)(=O)c2ccc(C)cc2)cc1	0.0	-1	0.2%	-0.9%	0.3	-4	11%
O=C(CC1CS(=O)(=O)CC1CC(=O)Nc1ccc2c(c1)OCCO2)Nc1ccc2c(c1)OCCO2 (centres undefined)	9.3	5	-0.2%	-2.8%	0.8	-7	22µM*
Cc1cc(C)n2nc(-c3sccc3-n3c(C)ccc3C)cc2n1	-0.3	5	-1.6%	36%	0.3	-13	5%
Cc1nc(NC(=O)Nc2ccc(Cl)cc2)sc1C	-2.3	16	0.6%	x	2.0	6	5%
O=C(c1ccccc1)c1nnc(-c2ccncc2)o1	4.1	-3	-0.5%	0.0%	0.3	-2	12%
CC1CCCC(C)N1CCCNC(=O)Cn1ncc2c([nH]c3ccccc32)c1=O (centres undefined)	2.3	26	0.4%	3.4%	-0.4	-13	0%
COc1ccc(/C=C/C2=NC(=C\N(C)C)/C(=O)O2)cc1	-11	10	-1.2%	u	0.0	-8	79µM*
CC(C)(C)c1ccc(C(=O)NCCC(=O)Nc2cc(Cl)ccc2N2CCOCC2)cc1	x	21	1.1%	-0.1%	-0.5	35	x
O=C(Nc1cccc(C(F)(F)F)c1)c1ccc2nc(N3C(=O)CCC3=O)sc2c1	4.2	-9	6.2%	13%	0.7	-3	11%
O=C(NC1CCCCC1)C1CCN(c2nccs2)CC1	1.9	-5	0.2%	0.1%	-0.6	-6	9%
O=C1COc2ccc(C(=O)COC(=O)C3CC(O)CN3S(=O)(=O)c3ccc(Cl)cc3)cc2N1 (centres undefined)	1.2	-5	-0.7%	-2.7%	0.0	-7	15%

Some of the entries above in a different format.
Structure: COc1ccc2[nH]c(=O)c(CN(C(=O)c3ccncc3)C(C)(C)C)cc2c1
  Menin-MLL FL inh = -0.2 | TRPV1 PAM = 6 | PINK1 modulator = -0.2% | ClpP mod = -19% | TRPML1 agonist = -0.2 | TRPML1 inh = -4 | Sfp PPTase inh = -7%
Structure: Cc1cccc(N(C)S(=O)(=O)c2cc(-c3cnc(C4CC4)o3)ccc2C)c1
  Menin-MLL FL inh = x | TRPV1 PAM = x | PINK1 modulator = 1.0% | ClpP mod = -8.0% | TRPML1 agonist = 2.2 | TRPML1 inh = 58 | Sfp PPTase inh = x
Structure: Cc1ccc(C2=NN(C(=O)COc3ncnc4ccccc34)C(c3ccco3)C2)cc1 (centres undefined)
  Menin-MLL FL inh = -0.7 | TRPV1 PAM = -31 | PINK1 modulator = 6.9% | ClpP mod = 0.2% | TRPML1 agonist = 0.6 | TRPML1 inh = -5 | Sfp PPTase inh = 17%

Further records follow:
SMILES	Menin-MLL FL inh	TRPV1 PAM	PINK1 modulator	ClpP mod	TRPML1 agonist	TRPML1 inh	Sfp PPTase inh
CCCCn1c(=O)c(CCC(=O)OCC(=O)NC(C)c2ccccc2)nc2ccccc21 (centres undefined)	-0.4	-8	-0.8%	x	3.8	13	16%
COC(=O)c1ccc(CNC(=O)c2cc(COc3cncc(Cl)c3)on2)cc1	x	22	1.7%	4.3%	2.6	9	10%
CCn1c(=O)cc(SCC(=O)NCCc2cc(OC)ccc2OC)c2ccccc21	x	x	2.0%	-2.3%	-0.2	38	x
O=C(NNC(=O)C1C2CCC(C2)C1C(=O)O)c1ccc(Br)o1 (centres undefined)	3.3	-6	x	x	x	x	5%
CCOC(=O)c1sc2nc(CC(=O)OC)nc(N3CCN(c4ccccn4)CC3)c2c1C	3.9	8	x	u	1.5	24	u
CCC(=O)Nc1cccc(C(=O)/C=C/c2ccc(F)cc2)c1	-1.1	-12	-2.6%	-3.7%	0.4	-8	-18%
COC(=O)C(CC(=O)c1ccc(Br)cc1)n1nc(C)cc1C (centres undefined)	-7.3	0	0.5%	x	0.1	3	50µM*
COc1ccc(CCNC(=O)CSc2nc(N)c3c(C)c(C)oc3n2)cc1OC	4.3	6	3.2%	-1.1%	0.4	-10	5%
Cc1cc(C(=O)N/N=C/C=C/c2ccccc2[N+](=O)[O-])c(C)o1	1.1	u	0.0%	1.1%	0.0	5	-8%
CN1CCN(C(=O)c2cccc(COc3cc(Cl)ccc3Cl)c2)CC1	0.5	23	-0.2%[38.3 µM]	-0.8%	0.1	0	11%
COc1ccc(Oc2ncc3nc(C)c(=O)n(-c4ccccc4)c3n2)cc1	7.6	x	2.0%	x	x	x	13%
CCOc1ccc(NC(=O)NNC(=O)C(C)Oc2ccccc2OC)cc1 (centres undefined)	-5.8	16	-0.3%	-2.3%	0.1	-1	3%
C/C(=N\NC(=O)c1csc(C)c1C)c1ccc(C)s1	4.1	0	12%	-2.4%	1.2	37	-7%
Cc1cc(Cl)ccc1OCC(=O)Nc1cccc(S(=O)(=O)N2CCCC2)c1	x	15	0.6%	-3.3%	-1.3	3	x
COC(=O)c1cccc(NC(=O)CSc2nnnn2C)c1	4.3	22	0.3%	-0.8%	-0.6	8	21%
Cc1ccc(N(CC(=O)Nc2ccc(C)c(F)c2)S(=O)(=O)c2c(C)n[nH]c2C)cc1	x	x	1.2%	0.8%	0.6	-13	x
O=C(CCl)Nc1ccc(Oc2cnc3ccccc3n2)cc1	2.8	8	-28%[38.3 µM]	-8.4%	-0.4	25	13%
Cc1cccc(NC(=O)CSc2nc3c(sc4ccccc43)c(=O)n2CCCC(=O)NC2CCCC2)c1	x	x	0.8%	u	-0.3	-5	x
CCOc1ccc(CNC(=O)CCCn2c(=O)c3cccn3c3ccccc32)cc1	x	x	-0.2%	-21%	2.3	0	x
Cc1ccccc1-c1nc(CS(=O)(=O)CC(=O)N2CCN(c3ccccc3)CC2)c(C)o1	x	x	1.8%	0.1%	2.0	19	x
CCOc1ccc(S(=O)(=O)N2CCCC(C(=O)NCc3cccnc3)C2)cc1 (centres undefined)	-1.3	-8	-0.8%	-1.0%	-0.1	-2	12%
CN(Cc1cccs1)C(=O)COc1cccc(-n2cnnn2)c1	1.1	8	-3.5%	0.4%	2.1	-7	8%
Fc1ccc(-c2nnc(NC3=NCCCCC3)o2)cc1	2.9	-2	1.0%	1.1%	1.2	-15	21%
CC(=O)Nc1sc(C)c(C)c1C(=O)OCC(=O)Nc1cccc(C)c1	x	x	u	5.4%	-0.6	-7	x
O=C(c1cc2ccccc2oc1=O)N1CCCCCCC1	-0.6	0	-0.3%	-0.3%	0.5	1	2%
(listing goes on)
SMILES	Menin-MLL FL inh	TRPV1 PAM	PINK1 modulator	ClpP mod	TRPML1 agonist	TRPML1 inh	Sfp PPTase inh
CC1(C)OC(=O)C(=NNc2ccc(C(=O)O)cc2)C(=O)O1	4.7	3	0.8%	x	-0.3	-4	-8%
CN(Cc1nc2ccccc2c(=O)[nH]1)C(=O)c1ccccc1OCc1ccc(Cl)cc1	x	-8	-0.3%	-0.7%	1.3	6	x
CCOc1ccccc1CNS(=O)(=O)c1ccc2[nH]c(=O)ccc2c1	x	x	-3.4%	-5.6%	1.1	3	x
CC(C)OCCCNC(=O)COc1ccc2oc3c(c2c1)CCCC3	x	1	3.0%	-1.2%	3.4	-4	9%
Cc1ccc(NCC(=O)Nc2cccc(S(=O)(=O)N(C)C)c2)c(Cl)c1	3.5	1	1.6%	1.2%	-1.0	55	10%
O=c1ccc(S(=O)(=O)N2CCC(Cc3ccccc3)CC2)c[nH]1	4.8	-15	-2.5%	-0.8%	0.0	-10	23%
O=C(Nc1ccccc1Cl)c1cccc(COc2cc(Cl)ccc2Cl)c1	-0.4	7	4.7%	-24%	3.8	12	-14%
CCN=C1SC(CC(=O)NC(C)C)C(=O)N1CC (centres undefined)	-1.0	2	0.9%	-0.4%	-0.2	3	13%
CCOc1cccc(Cc2c[nH]c(=O)[nH]c2=O)c1	x	x	0.7%	1.4%	-0.3	-1	x
CC1(C)C2CCC1(C)C(OC(=O)C[n+]1ccccc1)C2 (centres undefined)	-1.2	7	2.6%	-0.6%	x	x	14%
O=C(c1cc(-c2cccnc2)nc2ccccc12)N1CCN(S(=O)(=O)c2cccs2)CC1	x	-5	-0.2%	-0.2%	-1.0	3	x
Cc1ccc(C)c(SCC(=O)N(C)CC(=O)Nc2ccc(N3CCOCC3)cc2)c1	x	5	0.4%	x	-0.3	-7	x

Assay outcomes from PubChem BioAssay.
